Screens deposited in PubChem BioAssay by National Center for Advancing Translational Sciences (NCATS).
CtBP-E1A blk: CtBP/E1A binding inhibition; AlphaScreen GST-E1A/His-CtBP binding, 1536-well; hits give low values; control for the full effect not named in the record; activity change, % (no concentration beside the values); actives 0.49% (n = 340,000); in the data active means activity change below about -65%; inconclusive means about -30% to -65%; inactive means above about -30%; note: % is set by controls: 0 for no effect and ±100 for the full control effect; compound concentration not given in the record
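Steps: dispense buffer (Tris pH 8.0, NaCl 300 mM, TCEP 1 mM, BSA, Tween 20); add 5X protein mix (GST-E1A, His-CtBP, 125 nM each); pin 23 nL compound; 2 h at 37 °C, dark; add 5X beads (50 ug/mL); 1 h; read.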
TRPML1 agonist: activates the human TRPML1 channel | AID 624414 | activation, % (test concentration not listed) | TRPML1-expressing cells, Ca2+ dye fluorescence, FDSS; host cell line not named in the record; reference of the full effect not given here | actives 0.12% (n = 410,000) | Q9GZU1; in the data active = activation above about 50%; inconclusive = about 30% to 50%; inactive = below about 30%; note: 0% is about no effect; the text of the record puts the active cut at 80%
Target sequence (Q9GZU1 whole entry, looked up): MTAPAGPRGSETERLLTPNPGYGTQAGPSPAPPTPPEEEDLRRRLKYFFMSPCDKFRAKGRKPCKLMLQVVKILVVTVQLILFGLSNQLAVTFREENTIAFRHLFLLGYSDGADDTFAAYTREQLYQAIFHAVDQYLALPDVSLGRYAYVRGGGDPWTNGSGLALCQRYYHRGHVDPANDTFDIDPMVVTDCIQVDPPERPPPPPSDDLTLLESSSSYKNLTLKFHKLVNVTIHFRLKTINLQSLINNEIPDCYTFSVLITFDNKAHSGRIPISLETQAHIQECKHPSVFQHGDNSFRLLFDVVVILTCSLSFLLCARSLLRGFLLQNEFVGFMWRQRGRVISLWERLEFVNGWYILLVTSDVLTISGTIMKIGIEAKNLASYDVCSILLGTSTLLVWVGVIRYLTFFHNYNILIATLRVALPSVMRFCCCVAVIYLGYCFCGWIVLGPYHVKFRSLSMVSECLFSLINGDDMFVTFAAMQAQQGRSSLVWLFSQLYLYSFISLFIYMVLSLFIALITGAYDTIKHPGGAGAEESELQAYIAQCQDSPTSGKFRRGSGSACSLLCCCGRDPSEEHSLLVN
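Tet-induced TRPML1-DL cells, 1,500 per well, cultured overnight, were loaded with a no-wash Ca2+ dye for 45–90 min. Calcium fluorescence was recorded on the FDSS for 110 s after compound addition, before the EC80 agonist (4 uM 54-4) was added.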
TRPML1 blocker: blocks the human TRPML1 channel | Q9GZU1 | TRPML1-inducible cells, Ca2+ dye fluorescence, FDSS; hits give low values; inhibition of EC80 agonist-evoked calcium signal | activity change, negative = inhibition, % (no concentration beside the values) | actives 0.02% (n = 390,000); in the data active means activity change below about -50%; inconclusive means about -30% to -50%; inactive means above about -30%;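 note: stimulus is agonist 54-4 at its EC80 concentration; % is set by controls: 0 for no effect and ±100 for the full control effect; compound concentration not given in the record; the text of the record puts the active cut at -80%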
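Tet-induced TRPML1-DL cells loaded with Ca8 no-wash calcium dye were read kinetically on FDSS. Compound addition was followed by EC80 agonist 54-4 (4 uM final); inhibition was read over 110 s.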
TRPV1 PAM: potentiators of human vanilloid receptor 1 (TRPV1) | TRPV1-expressing cells, Fluo-8 calcium influx, capsaicin EC20 potentiation; host cell line not named in the record; control for the full effect not named in the record | AID 540277 | actives 0.02% (n = 320,000) | potentiation, % at 8.33 µM | Q8NER1; active means potentiation above 80%; inconclusive means 30% to 80%; inactive means below 30%; note: 0% is about no effect
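Cells expressing TRPV1 were dye-loaded with Fluo-8 and read kinetically: 10 s baseline, 3 min after compound (agonist portion), then 2 min after EC20 capsaicin (allosteric enhancer portion). Calcium-bound dye fluorescence at 480/520 nm.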
Six1-Eya2 inh: Six1/Eya2 interaction inhibition | Q15475+O00167 | AlphaScreen GST-Six1/His-Eya2 binding, biochemical; hits give low values; control for the full effect not named in the record | activity change, % (test concentration not listed) | actives 0.56% (n = 360,000) | AID 651725; in the data active = activity change below about -65%; inconclusive = about -30% to -65%; inactive = above about -30%; note: % is set by controls: 0 for no effect and ±100 for the full control effect; compound concentration not given in the record
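Compounds are tested against tagged Six1 and Eya2 proteins bridged by glutathione donor and nickel acceptor beads; after a one-hour incubation at 37 °C without light, AlphaScreen emission is recorded.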
D2 potentiator: potentiates the human D2 dopamine receptor allosterically. potentiation, % (no concentration beside the values). actives 0.23% (n = 360,000). P14416. DiscoveRx D2 beta-arrestin cells, luminescence, 90 min; 100% = 57 uM dopamine signal. AID 624464; active = potentiation of 50% or more; inconclusive = 30% to 50%; inactive = 30% or less;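 note: compound concentration not given in the record; tested on top of an EC20 dose of dopamine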
Target sequence (P14416 whole entry, looked up): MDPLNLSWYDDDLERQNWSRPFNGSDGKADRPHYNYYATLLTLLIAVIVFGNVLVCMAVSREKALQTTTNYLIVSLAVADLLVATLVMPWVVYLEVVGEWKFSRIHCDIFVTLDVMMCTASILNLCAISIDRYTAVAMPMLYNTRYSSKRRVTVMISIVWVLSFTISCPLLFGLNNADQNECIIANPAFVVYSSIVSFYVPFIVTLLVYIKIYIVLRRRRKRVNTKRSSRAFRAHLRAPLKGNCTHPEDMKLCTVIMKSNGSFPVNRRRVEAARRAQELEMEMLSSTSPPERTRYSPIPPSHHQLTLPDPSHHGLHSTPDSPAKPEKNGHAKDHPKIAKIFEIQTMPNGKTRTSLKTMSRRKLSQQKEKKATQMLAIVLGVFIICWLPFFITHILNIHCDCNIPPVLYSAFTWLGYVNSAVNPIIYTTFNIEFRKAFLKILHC
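D2 cells co-treated with compound plus 50 nM dopamine (EC20) for 90 min at 37 deg C to detect potentiation. Beta-arrestin recruitment was read as enzyme-fragment luminescence after 1 h at ambient temperature. Full response was set by 57 uM dopamine.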
* hit, by the source's call; ? = inconclusive; . = not tested or not shown; & = joins results of further samples.

SMILES	CtBP-E1A blk	TRPML1 agonist	TRPML1 blocker	TRPV1 PAM	Six1-Eya2 inh	D2 potentiator
NC(=O)N/N=C/c1ccc(-c2ccc([N+](=O)[O-])cc2)o1	.	2.2	15.9	?	-0.3	-11.7
CCOC(=O)N1CCN(C(=O)C(=O)Nc2sc3c(c2C#N)CC(C)(C)OC3)CC1	8.3	-0.9	-5.3	?	5.7	-0.1
CCc1ccc2c(c1)cc(CN(Cc1ccco1)C(C)=O)c1nnnn12	-11.8	-0.1	-17.3	0.1	-4.1	-2.2
CC(=O)Nc1cccc(C(=O)OCC(=O)Nc2ccc(Cl)cn2)c1	-1.5	0.9	38.0	5.6	-1.8	-29.4
COc1ccc(-c2noc(CCCC(=O)Nc3cccnc3)n2)cc1OC	6.2	-1.0	8.0	14.6	-1.8	-5.3
Cc1[nH]c2ccc(C(=O)Nc3ccncc3)cc2c1C	.	1.6	6.1	1.1	-3.8	-12.9
CN(C)CCNC(=O)c1ccc(Sc2ccc(Br)cc2)c([N+](=O)[O-])c1	-22.9	-0.4	-2.1	-4.0	-10.7	-33.0
O=C(Nc1ccc(F)cc1)C1(S(=O)(=O)c2ccc(Cl)cc2)CC1	4.5	0.6	4.7	10.3	5.1	1.2
COc1ccc(C)cc1NC(=O)C(Sc1nnc2ccccn12)c1ccccc1 (stereo not given)	12.2	0.2	-7.6	-1.0	-2.6	-6.6
N#Cc1c(N2C(=O)Nc3ccccc3N2O)sc2c1CCCCCC2	1.1	1.1	42.8	?	-14.4	1.8
O=C(NN=C1CCCCCC1)c1cn(-c2ccccc2)nc1-c1ccccc1	-2.7	0.3	-3.6	-10.5	1.0	-36.3
Cc1nc2ccccn2c1C(=O)NNC(=S)Nc1ccccc1	-6.3	-0.5	-7.3	1.9	-9.6	-18.4
COc1ccc(S(=O)(=O)N2CCN(CCCOc3ccc(F)cc3)CC2)cc1OC	-24.2	0.6	2.0	-6.4	-11.3	-20.0
CCOC(=O)C1=C(C)NC(=O)C(C#N)C1c1ccco1 (stereo not given)	1.7	-0.1	21.5	-7.8	3.0	-17.8
Cc1csc(N)n1	6.2	3.0	27.5	-4.9	-0.5	-6.5
O=C(COC(=O)c1ccc(S(=O)(=O)N2CCCC2)cc1)Nc1ccccc1	2.5	0.0	2.0	-16.8	-4.0	-18.2
CSc1ncccc1C(=O)OCc1c(F)cccc1Cl	45.4	3.8	22.4	4.7	37.3	7.5
N/C(CC(=O)Nc1cccc(C(F)(F)F)c1)=N/O	2.9	-0.6	-4.5	7.3	4.9	-7.9
Cc1c(C(=O)OCC(=O)Nc2ccc(C(=O)N(C)C)cc2)oc2ccccc12	2.4	2.5	36.1	4.0	-1.0	-3.3
CCCCN(C)C(=S)Nc1ccc(Oc2ccccc2)cc1	-6.9	1.3	-12.6	-13.4	0.2	9.2
CCOC(=O)c1ccc(NC(=O)c2ccc3c(c2)C(=O)N(CC2CCCO2)C3=O)cc1 (stereo not given)	1.6	0.8	11.6	-14.5	-2.6	-4.9
COc1ccc(CN2CCN(C(=O)C3CCN(C(=O)Nc4ccccc4)CC3)CC2)cc1OC	.	-0.9	19.2	.	2.8	5.3
N#CCCN1CCN(C(=S)c2ccc(-c3ccc(Cl)c(Cl)c3)o2)CC1	?	0.3	44.9	10.5	?	-0.5
O=C1CCC(C(=O)N2CCOCC2)CN1Cc1ccc(Cl)cc1 (stereo not given)	4.2	0.1	13.8	11.0	-0.3	-7.6
C#CCOCCOCCOCCNc1nc(N2CCN(C(=O)[C@H](CCCN=C(N)N)n3cc(C(N)[C@H](C)CC)nn3)CC2)nc(N2CCN(C(=O)[C@H](CCCN=C(N)N)n3cc(C(N)[C@@H](C)CC)nn3)CC2)n1 (stereo not given in full)	-13.3	-0.7	-6.5	.	-8.0	-15.5
New compounds follow
SMILES	CtBP-E1A blk	TRPML1 agonist	TRPML1 blocker	TRPV1 PAM	Six1-Eya2 inh	D2 potentiator
COc1ccc(NS(=O)(=O)c2ccc(OC)c(N(C)S(=O)(=O)c3ccc(Cl)cc3)c2)cc1	-3.6	-0.4	-11.8	25.1	-18.5	24.5
COc1ccc(N(CC(=O)NC2CCCCC2)C(=O)CCCC(=O)Nc2ccccn2)c(OC)c1	7.1	-0.8	31.0	11.1	-0.1	14.8
Cc1cccc(Nc2nnc(SCc3cc(=O)n4cc(C)ccc4n3)s2)c1	-20.8	-0.2	2.6	-1.6	-16.9	-12.8
CCOC(=O)CSc1nnc(CSc2nc3sc4c(c3c(=O)[nH]2)CCC4)n1-c1ccccc1	5.8	2.2	2.4	-2.6	1.3	-11.4
Cc1cc(C)nc(NS(=O)(=O)c2ccc(NC(=O)COc3ccccc3F)cc2)n1	5.5	0.4	22.4	1.0	1.0	-15.0
COC(=O)[C@@]12CCCCN1[C@H](c1ccc(-c3ccc4c(c3)OCO4)c(OC)c1)[C@@H]1C(=O)N(C)C(=O)[C@@H]12	-11.9	-0.4	18.6	-3.0	-13.0	-6.1
Cc1ccc(C2(CCNC(C)c3cccs3)CCOC(C(C)C)C2)cc1 (stereo not given)	2.5	1.5	9.4	-9.7	-0.8	-6.5
N=c1n(CCO)c2ccccc2n1Cc1ccccc1Cl	-0.1	-0.7	0.4	3.1	6.5	-11.4
Cc1ccc(C(C)C)c(OCC(O)CN2CCOCC2)c1 (stereo not given)	10.1	-0.3	1.6	-22.4	5.8	-13.0
COc1ccc(NS(=O)(=O)c2cccc(C(=O)NN=Cc3ccc(O)c(OC)c3)c2)cc1	-22.9	0.0	14.9	.	?	-10.3
Cc1[nH]c2ccccc2c1C(=O)COC(=O)C1CC(O)CN1S(=O)(=O)c1ccc(Cl)cc1 (stereo not given)	-4.0	7.9	16.1	-2.0	14.1	8.3
CC(=O)c1cc2c(cc1NC(=O)CSc1nnc(C)s1)OCO2	1.9	0.4	-11.7	-6.9	-1.5	-11.3
O=C1C=C(CCc2ccccc2)CCC1	-11.9	-0.4	45.0	.	-3.6	-10.3
CCOC(=O)CSc1nnc(-c2ccc([N+](=O)[O-])cc2)o1	-7.1	-0.1	58.4	2.4	-7.1	14.6
CC(C)COc1ccc(S(=O)(=O)NNC(=O)c2cc3ccccc3o2)cc1	1.7	3.1	36.4	3.4	-8.3	-6.3
Cn1c(CCC(=O)O)nc2cc(S(=O)(=O)N3CCCC3)ccc21	5.5	1.1	-3.4	.	7.4	-3.7
COC(=O)C[C@@H]1C[C@H]2c3cc(NC(=O)Nc4ccccc4F)ccc3O[C@H]2[C@H](CO)O1	6.0	-0.7	0.1	.	-2.7	8.3
COc1c(Cl)cnn(-c2ccc(C)cc2)c1=O	10.9	-0.7	11.6	19.3	-0.1	-18.1
Cc1ccc(C(=O)N2CCCC2)cc1S(=O)(=O)Nc1cccc(C)c1C	9.0	1.0	0.7	8.5	4.8	-2.9
CCOC(=O)C1=C(C)NC(=O)NC1c1ccc(N2CCC(c3ccccc3)=N2)cc1 (stereo not given)	.	0.0	1.8	6.1	5.7	-5.1
COc1ccc(NC(=O)Cn2nc3n(c2=S)CCC3)cc1	-0.6	0.0	-7.2	-1.6	-2.6	-0.8
CC(=O)c1ccc(S(=O)(=O)NCCc2cn3ccc(C)cc3n2)cc1	-0.3	1.0	4.6	.	2.0	-2.3
Cc1cccc(NC(=S)NC2CC3CCCC(C2)N3Cc2ccco2)c1 (stereo not given)	-8.9	0.6	-6.9	9.8	-7.4	-4.2
OC(CON=C1c2ccccc2-c2ccccc21)CN1CCNCC1 (stereo not given)	0.0	0.4	-10.3	8.7	-3.9	2.3
CC(C)(C)C(=O)NC1=NCCS1	13.2	-0.2	14.9	7.1	-0.9	3.5

The final 2 records of the part above lead into the next.
SMILES	CtBP-E1A blk	TRPML1 agonist	TRPML1 blocker	TRPV1 PAM	Six1-Eya2 inh	D2 potentiator
OC(CON=C1c2ccccc2-c2ccccc21)CN1CCNCC1 (stereo not given)	0.0	0.4	-10.3	8.7	-3.9	2.3
CC(C)(C)C(=O)NC1=NCCS1	13.2	-0.2	14.9	7.1	-0.9	3.5
CCCNC(=O)COC(=O)c1ccccc1C(=O)c1ccc(Cl)c([N+](=O)[O-])c1	0.0	0.7	37.1	0.2	-13.6	-8.2
CC(C)c1ccccc1NC(=O)C1C2C=CC(C2)C1C(=O)O (stereo not given)	3.5	3.8	6.9	5.4	0.6	-0.2
O=C(NCc1ccccc1)C1=C[C@@H](c2ccc(Br)cc2)C[C@@H](OCCCCO)O1	1.1	-0.4	16.1	12.3	-6.6	-14.3
COc1ccc(OC)c2sc(NC(=O)c3cccc(N4C(=O)CCC4=O)c3)nc12	11.3	0.1	1.7	-4.0	-2.1	7.8
O=C(OCC(=O)N1CCN(c2ccccc2)CC1)c1ccncc1	-3.3	1.6	-12.4	-3.4	6.5	-3.1
COC(=O)C1=C(C)NC(C)=C(C(=O)OC)C1c1ccccc1[N+](=O)[O-]	?	-0.1&-0.8&1.9	-0.9	-9.2	-28.4	.
c1ccc2cc(-c3cc4ccccn4c3)ccc2c1	6.3	0.6	-1.6	-20.3	-4.6	0.3
O=C(O)CC1Sc2nc3ccccc3n2C1=O (stereo not given)	3.0	-0.3	4.6	?	7.8	-6.2
O=C(COC(=O)c1cc(S(=O)(=O)N2CCOCC2)ccc1F)NCCc1ccc(F)cc1	-16.5	0.1	-4.7	.	8.4	-8.1
Nc1cc(=O)[nH]c(SCC(=O)Nc2ccc(S(=O)(=O)N3CCOCC3)cc2)n1	-2.9	0.7	0.4	9.3	-7.9	-3.3
CSc1nc2ccccc2c(=O)n1C1CCCCC1	27.3	2.5	4.5	-11.7	12.1	1.4
COc1ccc(N/C=C/C(=O)c2ccc(Oc3ncccn3)cc2)cc1	-0.3	-0.8	-6.9	5.8	6.2	-9.2
Cc1cc2c(SCC(=O)Nc3ccccc3O)ncnc2s1	1.9	0.6	-10.7	.	18.1	-2.3
COc1ccc(C(C#N)N2N=C(C)CC2(C)C)cc1 (stereo not given)	9.5	-0.1	-2.3	-2.2	2.1	0.7
Cn1cccc1P(=O)(c1cccn1C)c1cccn1C	11.9	-0.1	14.4	-6.8	6.5	-1.4
O=C(NCc1ccco1)Nc1ccc2nsnc2c1	-5.0	0.2	-0.7	-4.6	7.5	23.1
N#Cc1ccc(-c2nc3ccc(Br)cn3c2Cc2ccccc2)cc1	-3.8	0.7	16.1	.	1.0	-2.1
Cc1ccc(C(=O)N/C(=C/c2ccc(Cl)cc2)C(=O)Nc2cccc(C(=O)O)c2)cc1	0.2	0.2	-0.4	-4.8	-0.9	-5.5
CCOC(=O)N1CCN(C(=O)COC(=O)COc2c(C)cc(C)cc2C)CC1	-11.7	0.3	2.1	18.3	-3.4	-4.9
O=C(Nc1nnc(SCc2c(Cl)cccc2Cl)s1)C1CC(=O)N(c2ccc3c(c2)OCCO3)C1 (stereo not given)	3.8	-0.5	1.0	29.4	-13.3	1.7
O=C1CC(c2nc3ccccc3[nH]2)CN1Cc1ccccc1 (stereo not given)	4.7	-0.4	-0.9	22.6	-1.1	-0.8
Cc1ccc(SCc2ccc(C(=O)Nc3cccnc3)cc2)cc1	-5.1	-0.2	-1.2	25.9	0.7	7.7

The order is random; any-hit rate near 0.95%.
